KCNQ2 block – KCNQ2 channel blockers in CHO-K1 cells – cell-based, FluxOR thallium flux, B-score, primary screen (AID 2156) | O88943 | 20 min; stronger effect = lower value; only compounds with negative scores are shown here; some inactives read as strong as hits | B-score at 10 µM | 1.1% of 310,000 active;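 active = fluorescence ratio B-score at most minus 3 library SDs, with starting brightness B-score within 2 library SDs, cut at about -5.5 in these data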
Target sequence (O88943 whole entry, looked up): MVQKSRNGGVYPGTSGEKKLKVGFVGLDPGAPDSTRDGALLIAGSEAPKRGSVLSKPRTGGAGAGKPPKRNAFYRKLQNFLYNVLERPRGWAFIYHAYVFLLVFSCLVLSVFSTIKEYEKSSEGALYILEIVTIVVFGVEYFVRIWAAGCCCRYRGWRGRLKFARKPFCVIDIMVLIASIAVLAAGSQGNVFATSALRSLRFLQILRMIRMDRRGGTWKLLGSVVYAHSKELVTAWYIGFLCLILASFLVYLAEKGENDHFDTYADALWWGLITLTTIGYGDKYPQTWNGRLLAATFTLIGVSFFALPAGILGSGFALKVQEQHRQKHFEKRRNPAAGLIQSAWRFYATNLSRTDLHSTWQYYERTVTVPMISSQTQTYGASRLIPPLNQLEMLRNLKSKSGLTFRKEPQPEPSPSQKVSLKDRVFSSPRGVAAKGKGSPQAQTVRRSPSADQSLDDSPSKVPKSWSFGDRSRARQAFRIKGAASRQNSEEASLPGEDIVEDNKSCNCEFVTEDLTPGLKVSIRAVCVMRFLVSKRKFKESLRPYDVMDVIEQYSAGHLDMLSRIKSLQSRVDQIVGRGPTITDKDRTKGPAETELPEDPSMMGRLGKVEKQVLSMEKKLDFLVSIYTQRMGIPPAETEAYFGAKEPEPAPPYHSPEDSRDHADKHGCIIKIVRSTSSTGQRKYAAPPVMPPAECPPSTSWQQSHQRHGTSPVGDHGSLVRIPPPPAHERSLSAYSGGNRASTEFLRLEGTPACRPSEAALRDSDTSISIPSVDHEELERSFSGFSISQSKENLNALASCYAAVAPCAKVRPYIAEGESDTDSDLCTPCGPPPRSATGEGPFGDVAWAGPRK
KCNQ2 block baseline – second read-out of KCNQ2 block, no call of its own (marks repeat the call); B-score; measured here: initial fluorescence intensity artifact check;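 brightness before thallium and not channel activity; 0 = typical well and far values either way flag optical interference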
An asterisk follows results filed as active; i = inactive. Not all compounds are listed. The share of hits here may be higher or lower than overall.

cpd | SMILES | KCNQ2 block | KCNQ2 block baseline
1 | CC(C)N(C(=S)NCc1ccccc1)C(C)C | i | -0.83
2 | O=C(Nc1nc(-c2ccc(-c3ccccc3)cc2)cs1)C1CCCO1 (stereo not drawn) | i | 1.6
3 | O=C(CCn1nnc2ccccc21)N/N=C\Cc1ccccc1 | i | -0.05
4 | CCOC(=O)C1(CCOc2ccccc2)CCN(Cc2cccc(OC)c2)CC1 | i | -0.25
5 | Cc1ccc(NC(=O)N(Cc2ccc3c(c2)OCO3)Cc2cc3cc4c(cc3[nH]c2=O)OCCO4)cc1 | i | 0.48
6 | COc1ccc(C2NC(=S)NC3=C2CCc2ccccc23)cc1OC (stereo not drawn) | i | -2.3
7 | CCOC(=O)[C@@H]1[C@H]2COc3ccc(Br)cc3[C@@H]2N2C(=O)N(c3ccc(Br)cc3)C(=O)[C@]12C | i | 1.1
8 | CCOC(=O)C1(Cc2ccccc2Cl)CCN(Cc2csc(C(C)=O)c2)CC1 | i | 2.6
9 | O=C(NCc1ccco1)C1CC(=O)N(c2ccc(Cl)cc2)C1 (stereo not drawn) | i | 0.98
10 | CC(=O)N1CCC(=NNS(=O)(=O)c2ccc(C)c([N+](=O)[O-])c2)CC1 | i | -0.86
11 | Cc1ccc(/C=N/Nc2nc(Cl)c(Cl)cc2Cl)s1 | i | -0.32
12 | C/C(=N\N1CCN(Cc2ccc(Cl)cc2)CC1)c1ccc(F)cc1 | i | -0.67
13 | Cc1nc(SCC(=O)NC2CCCCC2)[nH]c(=O)c1C | i | 0.05
14 | c1cncc(CNC2CCCc3ccccc32)c1 (stereo not drawn) | i | 0.5
15 | COc1ccc(C(=O)Nc2ccccc2C(=O)N/N=C/c2ccco2)cc1 | i | -0.06
16 | C=CCn1c(-c2ccoc2C)n[nH]c1=S | i | 0.46
17 | CCCCNC(=O)c1ccc2nc(-c3ccco3)c(-c3ccco3)nc2c1 | i | -1.9
18 | S=C(NCCCc1ccccc1)Nc1ccccc1 | i | 0.14
19 | CCc1nc2ccccc2c(=O)n1NC(=O)c1c(O)c2cccc3c2n(c1=O)CCC3 | i | 1.4
20 | N#CC1=C(N)OC2=C(C(=O)CCC2)C1c1ccc2c(c1)OCO2 (stereo not drawn) | i | 1.5

Full records, quoted from the list.
CCCCNC(=O)c1ccc2nc(-c3ccco3)c(-c3ccco3)nc2c1 as listed: KCNQ2 block: i; KCNQ2 block baseline: -1.9
COc1ccc(C(=O)Nc2ccccc2C(=O)N/N=C/c2ccco2)cc1 as listed: KCNQ2 block: i; KCNQ2 block baseline: -0.06

As entered above:
compound 2 in KCNQ2 block baseline = 1.6
compound 15 in KCNQ2 block baseline = -0.06

Next section
cpd | SMILES | KCNQ2 block | KCNQ2 block baseline
21 | O=C(CCc1ccccc1)NNC(=O)c1ccccc1F | i | 3.1
22 | COc1ccc(/C=C2/C(=O)ON=C2c2ccccc2)cc1OC | i | 0.06
23 | COc1ccc(C(C(=O)NC2CCCC2)N(C(=O)c2ccco2)c2cc3c(cc2C(C)=O)OCO3)cc1OC (stereo not drawn) | i | 0.8
24 | CCN(CC)CCN1C(=O)c2cccc3cc(N)cc(c23)C1=O | i | 6.2
25 | NNC(=S)Nc1ccc(S(=O)(=O)N2CCOCC2)cc1 | i | 0.05
26 | Cc1nn(C)c(C)c1S(=O)(=O)N1CCCC(C(=O)N2CCN(c3ccccc3)CC2)C1 (stereo not drawn) | i | -0.88
27 | Cc1cc(Br)ccc1OCCN1CC(C)OC(C)C1 (stereo not drawn) | i | -0.01
28 | COc1ccc(-c2cc(C(=O)NCCCn3ccnc3)no2)cc1OC | i | 1.4
29 | O=S(=O)(c1cc(-c2nnc(-c3ccc(Br)cc3)o2)ccc1Br)N1CCCCCC1 | i | 0.23
30 | Nc1ccc(-c2nc3cc([N+](=O)[O-])ccc3o2)cc1 | i | -0.27
31 | O=C(OCc1ccc([N+](=O)[O-])cc1)c1ccc(N2CCCC2)c([N+](=O)[O-])c1 | i | -0.71
32 | CC(C)n1nc(C(=O)Oc2cccc(Cl)c2Cl)c2ccccc2c1=O | i | 0.99
33 | CCCCC(CC)CNC(=O)CCS(=O)(=O)c1cccc2nonc12 (stereo not drawn) | i | 0.12
34 | O=C(NC1CC1)C1CCN(c2ccc(S(=O)(=O)N3CCOCC3)cc2)CC1 | i | 1.5
35 | CCCCn1c(N)c(N(CC)C(=O)c2cccc(F)c2)c(=O)[nH]c1=O | i | -1.8
36 | CC(O)c1nc2ccccc2n1Cc1nnc(-c2ccc(Cl)cc2)o1 (stereo not drawn) | i | 1
37 | COc1ccc(N2CCN(C(=O)c3cccnc3)CC2)c([N+](=O)[O-])c1 | i | 0.44
38 | CCOc1ccc(NC(=O)CCC(=O)NNC(=O)c2ccccc2Cl)cc1 | i | 2.3
39 | O=C(NCC1CCCO1)C(c1cccs1)N(Cc1cccs1)C(=O)c1ccc(-c2ccccc2)[nH]1 (stereo not drawn) | i | -2.3
40 | C/C(N)=C(/C#N)C(=O)COC(=O)c1ccc(C#N)cc1 | i | 0.19
41 | CN(Cc1cn(-c2ccccc2)nc1-c1cc2ccccc2o1)C(=O)CCC(=O)O | i | 0.83
42 | C=CCn1c(SCC(=O)NNC(=S)Nc2ccccc2)nnc1-c1ccccc1 | i | 0.93
43 | COc1ccccc1-c1cnn2c(NCc3ccccc3)cc(C)nc12 | i | 0.5
44 | CCOc1ccc(N(CC(=O)N/N=C(\C)c2cccc(NC(C)=O)c2)S(=O)(=O)c2ccccc2)cc1 | i | 0.54
45 | N#CCCS(=O)(=O)c1ccc(N)cc1 | i | -1.5
46 | Clc1ccc(OCCOCCN2CCCCC2)c(Br)c1 | i | -0.84
47 | COc1cc(CNC(=O)C2CCCN2S(=O)(=O)c2ccccc2)cc(OC)c1OC (stereo not drawn) | i | -0.57
48 | O=C(O)c1ccc(NS(=O)(=O)c2cccc(C(=O)Nc3ccccc3[N+](=O)[O-])c2)cc1 | i | -0.02
49 | O=S(=O)(NCc1ccc(Cl)cc1Cl)c1cccs1 | i | -0.02
50 | Cc1ccc(N(CN2C(=O)NC(C)(C)C2=O)CN2C(=O)NC(C)(C)C2=O)cc1 | i | -0.04
51 | CCOC(=O)c1c(C)oc2c1cc(NS(=O)(=O)c1ccc(C(=O)O)cc1)c1ccccc12 | i | -0.59
52 | CSc1ccn(CCC(=O)O)c(=O)n1 | i | -2
53 | COc1ccc(-c2[nH]ncc2CN(CCO)CC23CC4CC(CC(C4)C2)C3)c(OC)c1 | i | 0.05
54 | CCC(CC)COC(=O)C(C#N)c1nc2ccccc2nc1N1CCN(CC)CC1 (stereo not drawn) | i | -1
55 | CCCS(=O)(=O)Nc1c(OC)ccc2c1c(C(=O)OCC)c(C)n2C | i | 0.02
56 | Cc1cc(C)cc(COn2ccnc2)c1 | i | 0.03
57 | C/C(=N\NC(=O)c1ccccc1O)c1c(O)cc(C)oc1=O | i | 1.4
58 | COc1ccc(S(=O)(=O)CCC(=O)N2CCN(c3ccc([N+](=O)[O-])cc3)CC2)cc1 | i | 1.5
59 | O=C(NCc1ccc(C(F)(F)F)cc1)C12CN(Cc3ccccc3)CC1C(c1cccc([N+](=O)[O-])c1)=NO2 (stereo not drawn) | i | 0.28
60 | COc1ccc(NC(=S)Nc2cccc(C(F)(F)F)c2)c(C)c1 | i | -0.11

Brought forward from above: six entries; new compounds follow.
cpd | SMILES | KCNQ2 block | KCNQ2 block baseline
55 | CCCS(=O)(=O)Nc1c(OC)ccc2c1c(C(=O)OCC)c(C)n2C | i | 0.02
56 | Cc1cc(C)cc(COn2ccnc2)c1 | i | 0.03
57 | C/C(=N\NC(=O)c1ccccc1O)c1c(O)cc(C)oc1=O | i | 1.4
58 | COc1ccc(S(=O)(=O)CCC(=O)N2CCN(c3ccc([N+](=O)[O-])cc3)CC2)cc1 | i | 1.5
59 | O=C(NCc1ccc(C(F)(F)F)cc1)C12CN(Cc3ccccc3)CC1C(c1cccc([N+](=O)[O-])c1)=NO2 (stereo not drawn) | i | 0.28
60 | COc1ccc(NC(=S)Nc2cccc(C(F)(F)F)c2)c(C)c1 | i | -0.11
61 | COc1cccc(OC)c1C(=O)N1CCN(C(=O)c2ccc(-c3ccccc3)cc2)CC1 | i | -0.97
62 | Cc1cccc(NS(=O)(=O)c2ccc(Oc3ccccc3)cc2)n1 | i | 1
63 | O=C(CSc1nc2ccccc2n1S(=O)(=O)c1ccccc1)N1CCCCC1 | i | 0.27
64 | CC1(C)Cc2c(sc3c2c(=N)n(Cc2ccco2)c(=O)n3Cc2ccccc2)CO1 | i | 0.01
65 | O=C1c2ccccc2C(=O)N1CC1c2ccccc2CCN1C(=O)CN1CCOCC1 (stereo not drawn) | i | 0.59
66 | Cc1ccccc1OCc1nnc(SCc2nc3ccccc3c(=O)[nH]2)n1C | i | 1.4
67 | c1ccc(Cn2nnc3c(N4CCOCC4)ncnc32)cc1 | i | -0.12
68 | COC(=O)c1c(NC(C)=O)csc1C | i | 0.41
69 | CCOC(=O)C1=NN(c2cccc(C)c2)C2(S1)SC(C(C)=O)=C(C)N2c1ccccc1 (stereo not drawn) | i | -0.2
70 | CCOc1ccccc1C(=O)N[C@H](C(=O)Nc1nc2c(s1)CCCC2)C(C)C | i | 2.1
71 | Cc1ccccc1S(=O)c1ccccc1C(=O)O (stereo not drawn) | i | -0.05
72 | Cc1ccc(C(=O)NCCOC23CC4CC(CC(C4)C2)C3)cc1 | -6* | 1.6*
73 | OCCC1CN(CCCc2ccccc2)CCN1Cc1ccccc1 (stereo not drawn) | i | 2.4
74 | O=C(NC(=S)Nc1ccccc1N1CCCC1)c1ccc(F)cc1 | i | -0.85
75 | O=C(CN(C(=O)CSc1nc2ccccc2o1)c1cccc(F)c1)NC1CCCCC1 | i | 1.1
76 | CCC1Oc2ccccc2N(Cc2ccccc2C)C1=O (stereo not drawn) | i | -0.79
77 | COc1cc2cc3c(N)c(C(=O)Nc4sc(C)c(C)c4C#N)sc3nc2cc1OC | i | 0.02
78 | Cc1ccc(Cn2nnc3c(=O)[nH]c(C4CCN(S(=O)(=O)c5ccc(C)cc5)CC4)nc32)cc1 | i | -2.5
79 | COc1cc(/C=C/c2nnc3c4ccccc4ncn23)cc(OC)c1OC | i | -1.1
80 | O=C(O)CCC(=O)NNC(=O)c1ccc(-c2ccccc2)cc1 | i | 1.3
81 | CCN(CC)CCN(C(=O)c1ccc2ccccc2c1)c1nc2ccc(OC)cc2s1 | i | 0.01
82 | Cc1cc(N2CCN(C)CC2)ccc1NC(=O)c1cccc(S(=O)(=O)N2CCc3ccccc3C2)c1 | i | -0.3
83 | CCOc1cc(CNCC(O)c2ccccc2)cc(Cl)c1OC (stereo not drawn) | i | 0.09
84 | COc1ccccc1Oc1ccc(NC(=O)c2ccccc2C)cc1 | i | 1.1
85 | CCn1c2ccccc2c2cc(CNCc3ccc(OC)cc3OC)ccc21 | i | -0.24
86 | Cc1ccc(-n2ncc(C(=O)O)c2C2CCN(C(=O)OC(C)(C)C)CC2)cc1 | i | -0.4
87 | COc1ccc([N+](=O)[O-])cc1C1NN=C(c2cccc3ccccc23)S1 (stereo not drawn) | i | -1.7
88 | COc1ccccc1OCCCn1c(C)c(C#N)c2ccccc21 | i | 2.2
89 | CN(C)c1ccncc1C(=O)Nc1ccc(F)cc1F | i | -0.05
90 | CC1CCCC(NC(=O)COC(=O)COc2ccc(Cl)cc2)C1C (stereo not drawn) | i | 0.68
91 | O=C1CN(C(=O)CSc2nc(-c3ccccc3)cs2)c2ccccc2N1 | i | 0.73
92 | COc1ccc(/C=C\c2onc(C)c2S(=O)(=O)N2CCC(C(=O)NCCC(C)C)CC2)cc1 | i | 0.2
93 | N#Cc1ccsc1NC(=O)COC(=O)CCCSc1nc2ccccc2s1 | i | -0.24
94 | C=CCOc1ccccc1CNc1ccc2c(c1)OCCO2 | i | 0.49
95 | CC(=O)Nc1ccc(-c2csc(NC(=O)C3CSC4(C)CCC(=O)N34)n2)cc1 (stereo not drawn) | i | 2.5
96 | CCCN1C(=O)COc2ccc(C(=O)c3ccccc3C(=O)O)cc21 | i | 2
97 | Cc1ccc(-c2cc(C(F)F)n3ncc(C(=O)Nc4c(C)nn(Cc5c(Cl)cccc5Cl)c4C)c3n2)cc1 | i | 0.97
98 | Cc1c(C#N)c(O)[nH]c(=O)c1N=Nc1ccc(Cl)c(C(=O)O)c1 | i | 0.42
99 | Cc1ccc([N+](=O)[O-])c(-c2n[nH]c(=S)n2-c2cccc(Cl)c2)c1 | i | 0.14
100 | Cc1cc2ccccc2n1CCNC(=O)c1ccccc1 | i | -0.13
101 | COc1cc(Cl)c(C)cc1NC(=O)CCNC(=O)c1ccco1 | i | -1.7
102 | COc1ccc2[nH]c3c(c2c1)CCN1C(=O)N([C@@H](C)C(=O)NCCc2ccc(F)cc2)C(=O)[C@]31C | -7* | -0.91*
103 | O/N=C/c1cccnc1Sc1ccccc1 | i | 0.54
104 | Cc1ccc(OCC(O)CN2CCN(c3ccccc3)CC2)cc1 (stereo not drawn) | i | 0.39
105 | COc1cc([N+](=O)[O-])ccc1NC(=O)CN1CCOCC1 | i | 3.1
106 | O=S(=O)(Nc1ccccc1)c1cccc2nsnc12 | i | 1.5
107 | COc1ccccc1CN1CC(C(=O)NCCc2cn[nH]c2)CCC1=O (stereo not drawn) | i | -0.75
108 | Cc1ccc(S(=O)(=O)NNC(=O)c2cccs2)c(C)c1 | i | 0.66
109 | Cc1sc2ncn(-c3ccccc3)c(=O)c2c1C | i | 0.84
110 | Cc1[nH]c2ccccc2c1N=Nc1ccccc1F | i | -0.25
111 | COc1ccc2[nH]c(=O)c(CN(C(=O)c3ccncc3)C(C)C)cc2c1 | i | -0.01
112 | O=C1CC(c2cccc(Cl)c2)CC(O)=C1C=NC1CCCC1 (stereo not drawn) | -6.8* | 0.5*
113 | CCOC(=O)c1cnc(-c2ccccc2)nc1Oc1ccc(C)cc1 | i | -1.1
114 | COc1ccc(NC(=O)COC(=O)CNS(=O)(=O)c2ccc(C)cc2)c(OC)c1 | i | 0.3
115 | CC(Oc1cc2oc(=O)c3c(c2cc1Cl)CCC3)C(=O)NCCN1CCOCC1 (stereo not drawn) | i | 0.18
116 | COc1ccc(CNCC(O)(c2ccc(Cl)cc2)c2ccc(Cl)cc2)cc1OC | i | -0.88
117 | COc1ccc(Oc2coc3cc(OCC(=O)N4CCCCC4)ccc3c2=O)cc1 | i | 1.4
